Vif A3G = inhibitors of Vif binding to APOBEC3G peptide, primary screen, biochemical, TR-FRET, GST-Vif 1-94, biotin-A3G peptide, dose response retest (AID 1117319). TR-FRET GST-Vif / biotin-A3G peptide binding; higher % means a stronger effect; test concentration not given here; strong numbers were not always called active. inhibition, %, or IC50 in µM where a hit was titrated. 260,000 compounds, 0.57% hits;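 active = above the screen mean plus three standard deviations and confirmed in dose response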;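 also: Vif residues 1-94 fused to GST binding biotinylated APOBEC3G peptide 110-148; 0% = full assay without inhibitor and 100% = GST in place of GST-Vif; retest series ran down from 100 µM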
Ecoli rRNA inh = inhibits bacterial ribosomal RNA function over humanized ribosomes; E. coli WT GFP vs humanized-ribosome RFP mutants, fluorescence, 24 h; active compounds read low; DMSO median 0, no signal -100; GFP signal change (wild-type ribosome), % (concentration not given with the values); 350,000 compounds, 1.6% hits; AID 720706;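 active = significant combined selectivity score with lowered wild-type GFP, culture density cut under 30%, mutant RFP and density less affected; inactive = any of these conditions unmet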; also: one replicate is shown; some compounds called inactive have numbers as strong as hits
AF4-AF9 inh = inhibitors of human MLL-AF4/AF9 interaction | AlphaScreen, biotin-AF4 peptide binding to FLAG-AF9 | AID 651704 | 350,000 compounds, 0.47% hits | inhibition, % at 10 µM;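 active = every replicate reaching a set inhibition limit, whatever the replicate mean, cut at about 25% in these data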;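 also: 0% = plate neutral control median and 100% = total signal loss; the record names both 10 and 1 µM as test concentration; the first replicate is given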
Target sequence (P42568 whole entry, looked up): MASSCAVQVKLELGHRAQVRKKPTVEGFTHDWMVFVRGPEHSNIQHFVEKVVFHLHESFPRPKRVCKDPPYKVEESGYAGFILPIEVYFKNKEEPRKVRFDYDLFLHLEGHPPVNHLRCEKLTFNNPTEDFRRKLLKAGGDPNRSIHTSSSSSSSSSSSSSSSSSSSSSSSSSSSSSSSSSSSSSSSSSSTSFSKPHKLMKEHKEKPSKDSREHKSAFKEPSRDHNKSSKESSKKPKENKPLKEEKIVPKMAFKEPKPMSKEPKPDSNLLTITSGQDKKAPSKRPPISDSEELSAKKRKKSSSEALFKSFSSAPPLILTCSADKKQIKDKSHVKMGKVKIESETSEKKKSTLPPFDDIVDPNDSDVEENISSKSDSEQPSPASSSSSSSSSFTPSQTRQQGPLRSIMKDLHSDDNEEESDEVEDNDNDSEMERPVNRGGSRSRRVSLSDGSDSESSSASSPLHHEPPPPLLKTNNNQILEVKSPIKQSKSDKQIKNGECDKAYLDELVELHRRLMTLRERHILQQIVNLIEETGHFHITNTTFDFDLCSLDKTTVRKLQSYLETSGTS
Ecoli rRNA inh OD600 = further read-out of Ecoli rRNA inh, marked with its call; OD600 change, %; measured here: OD600 growth;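 optical density of the mix in the first replicate; 0 = DMSO median and -100 = no signal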
Ecoli rRNA inh RFP = further read-out of Ecoli rRNA inh, marked with its call; RFP signal change, %; measured here: RFP humanized mutant strains;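 first replicate; 0 = DMSO median and -100 = no signal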
Active calls of the source: *; & = joins results of further samples. A portion of the library; rates above refer to the full screens.

Start of the data: the first 15 entries, ahead of the listing:
Vif A3G	Ecoli rRNA inh	Ecoli rRNA inh OD600	Ecoli rRNA inh RFP	AF4-AF9 inh	Molecule
-4%	-8	-34	2.9	2.2	S=C(NC1CCCCC1)NN1CCCCCC1
-5%	2	-9	-1.3	-1.9	COc1ccc(C(=O)NCC2(c3ccc(OC)c(OC)c3)CCCC2)cc1OC
-5%	0	-20	-0.9	-2.4	O=S(=O)(Cc1ccc(Cl)cc1)Oc1ccc(Cl)cc1
17%	1	1	-1.5	-0.2	CCN(CC)C(=O)C1=C(C)N(Cc2ccc(OC)cc2)C(=O)C(CC(=O)NCCc2ccccn2)C1 (configuration not stated)
4%	-19	-19	-3.0	0.7	COc1ccc(N(C)S(=O)(=O)c2ccc(Cl)c(C(=O)NNC(=O)c3ccccc3O)c2)cc1
-9%	8	0	0.9	1.9	O=C(Nc1nnc(C2CC2)s1)c1cc2ccccc2o1
3%	11	5	1.0	-8.4	O=C(Cc1cccc(NC(=O)C2CCCN(C(=O)C3CCC3)C2)c1)Nc1ccc(C(=O)N2CCOCC2)cc1 (configuration not stated)
-4%	-2&0	-3&0	-0.2&-1.8	-0.4	C[C@@H]1CN([C@@H](C)CO)C(=O)c2cc(NS(C)(=O)=O)ccc2O[C@@H](C)CCCCO[C@H]1CN(C)C(=O)Nc1ccc2c(c1)OCO2
-1%	18	20	-3.0	-3.3	NS(=O)(=O)c1cc(Br)c2c(c1)S(=O)(=O)NCN2
1%	-12	-23	2.9	-2.6	COc1ccccc1NOC(=O)CCOc1ccccc1
1%	-7	-51	3.9	8.3	CCCc1ccc(NC(C)C(=O)Nc2ccc(S(=O)(=O)N3CCOCC3)cc2)cc1 (configuration not stated)
-1%	-3	6	4.8	2.7	CC(C)(C)S(=O)N1Cc2cc(=O)n(Cc3ccccc3)c(CCO)c2[C@@H]1CCO (some centres not stated)
0%	17	16	2.5	-4.4	CC1=C(C(=O)N2CCOCC2)CC(CC(=O)NC2CCCC2)C(=O)N1Cc1ccccc1 (configuration not stated)
-11%	1	3	-5.4	-3.9	CC1(CCC(=O)O)C(=O)CCC2C1CCC1(C)C2CCC1(C)O (configuration not stated)
-4%	1	7	0.5	-1.3	Cc1cccc(-c2cc3nc(C)cc(=O)n3[nH]2)c1

Results, from the start:
Vif A3G	Ecoli rRNA inh	Ecoli rRNA inh OD600	Ecoli rRNA inh RFP	AF4-AF9 inh	Molecule
-4%	-8	-34	2.9	2.2	S=C(NC1CCCCC1)NN1CCCCCC1
-5%	2	-9	-1.3	-1.9	COc1ccc(C(=O)NCC2(c3ccc(OC)c(OC)c3)CCCC2)cc1OC
-5%	0	-20	-0.9	-2.4	O=S(=O)(Cc1ccc(Cl)cc1)Oc1ccc(Cl)cc1
17%	1	1	-1.5	-0.2	CCN(CC)C(=O)C1=C(C)N(Cc2ccc(OC)cc2)C(=O)C(CC(=O)NCCc2ccccn2)C1 (configuration not stated)
4%	-19	-19	-3.0	0.7	COc1ccc(N(C)S(=O)(=O)c2ccc(Cl)c(C(=O)NNC(=O)c3ccccc3O)c2)cc1
-9%	8	0	0.9	1.9	O=C(Nc1nnc(C2CC2)s1)c1cc2ccccc2o1
3%	11	5	1.0	-8.4	O=C(Cc1cccc(NC(=O)C2CCCN(C(=O)C3CCC3)C2)c1)Nc1ccc(C(=O)N2CCOCC2)cc1 (configuration not stated)
-4%	-2&0	-3&0	-0.2&-1.8	-0.4	C[C@@H]1CN([C@@H](C)CO)C(=O)c2cc(NS(C)(=O)=O)ccc2O[C@@H](C)CCCCO[C@H]1CN(C)C(=O)Nc1ccc2c(c1)OCO2

Vif A3G	Ecoli rRNA inh	Ecoli rRNA inh OD600	Ecoli rRNA inh RFP	AF4-AF9 inh	Molecule
-1%	18	20	-3.0	-3.3	NS(=O)(=O)c1cc(Br)c2c(c1)S(=O)(=O)NCN2
1%	-12	-23	2.9	-2.6	COc1ccccc1NOC(=O)CCOc1ccccc1
1%	-7	-51	3.9	8.3	CCCc1ccc(NC(C)C(=O)Nc2ccc(S(=O)(=O)N3CCOCC3)cc2)cc1 (configuration not stated)
-1%	-3	6	4.8	2.7	CC(C)(C)S(=O)N1Cc2cc(=O)n(Cc3ccccc3)c(CCO)c2[C@@H]1CCO (some centres not stated)
0%	17	16	2.5	-4.4	CC1=C(C(=O)N2CCOCC2)CC(CC(=O)NC2CCCC2)C(=O)N1Cc1ccccc1 (configuration not stated)
-11%	1	3	-5.4	-3.9	CC1(CCC(=O)O)C(=O)CCC2C1CCC1(C)C2CCC1(C)O (configuration not stated)
-4%	1	7	0.5	-1.3	Cc1cccc(-c2cc3nc(C)cc(=O)n3[nH]2)c1
4%	-4	-9	1.9	-0.8	CCOc1ccc(C(=O)CCC(=O)Nc2ccc(C)c(S(=O)(=O)N3CCCCC3)c2)cc1

Vif A3G	Ecoli rRNA inh	Ecoli rRNA inh OD600	Ecoli rRNA inh RFP	AF4-AF9 inh	Molecule
1%	16	9	4.2	-0.3	CC[C@]1(C(=O)OC)[C@H]2C(=O)N(Cc3ccccc3)C(=O)[C@H]2[C@H]2CN=C(SC)N21
-2%	-4	-4	-5.4	-3.1	COc1cccc(OC(=O)c2ccccc2)c1OC(=O)c1ccccc1
-2%	-4	-1	0.6	-5.5	COc1ccc(NC(=O)C[C@H]2C(=O)N(Cc3cccnc3)C[C@@H]2Cc2ccccc2)cc1
1%	9	13	1.1	0.1	CCCN1CCN(C(=O)c2ccc3[nH]c(C)c(C)c3c2)CC1
2%	-1	-1	-0.5	-4.6	NC(=O)c1ccsc1NC(=O)COC(=O)c1ccncc1
5%	-1	1	-2.6	0.1	CC(C)Cc1csc(=S)[nH]1
10%	-62	-72	-21	6.6	CCCCCCCCCCCCCCC(O)C[N+](C)(CCO)CCO (configuration not stated)
-8%	22	10	56	3.6	COc1ccc(S(=O)(=O)N(C)[C@H]2C[C@H]3c4cc(-c5ccccc5)ccc4CCN3C(=O)[C@H]2[C@H](C)O)cc1

Vif A3G	Ecoli rRNA inh	Ecoli rRNA inh OD600	Ecoli rRNA inh RFP	AF4-AF9 inh	Molecule
-5%	-40	-59	6.5	2.8	N#Cc1ccc(NC(=O)NN2CCCCCC2)cc1
-6%	0	6	0.0	-1.8	CCOc1ncccc1C(=O)OCC(=O)NC1CCCCCC1
10%	-32	-28	-4.7	-2.8	COc1ccccc1C(=O)Nc1ccc(C)c(S(=O)(=O)N2CCCCC2)c1
-3%	-2	5	-3.9	-2.0	CC(C)(C)OC(=O)N1CCN(C(=O)c2ncn3c2c(=O)[nH]c2ccccc23)CC1
3%	8	8	0.9	2.1	CCOC(=O)/C(=N\Nc1ccc(Br)cc1)N1CCN(c2ccccc2OC)CC1
2%	-1	0	-1.4	1.5	CN(CC(=O)Nc1ccc(Cl)cc1)C(=O)C1CCCC1
3%	24	15	2.5	5.6	CCC1(CC)SC(N)=NC1=O
5%	-5	-11	-2.6	1.2	Cc1ccc2nc3n(c(=O)c2c1)-c1ncccc1C(=O)NC3Cc1ccc(O)cc1 (configuration not stated)

Vif A3G	Ecoli rRNA inh	Ecoli rRNA inh OD600	Ecoli rRNA inh RFP	AF4-AF9 inh	Molecule
-3%	1	20	-2.2	0.4	C#CCN(C[C@H]1[C@H](OC(=O)NCc2ccc(OC)c(OC)c2)[C@H](OC(=O)NCc2ccc(OC)c(OC)c2)C[C@@H](C(=O)OC)[C@H]1C(=O)OC)S(=O)(=O)c1ccc(C)cc1
-12%	9	12	1.1	5.4	O=C(NCCCCCCNC(=O)OCc1ccccc1)OCc1ccccc1
-1%	1	1	3.2	-4.8	O=C(Cc1cccc(NC(=O)C2CCCN(C(=O)CCc3ccccc3)C2)c1)Nc1ccc(C(=O)N2CCOCC2)cc1 (configuration not stated)
-7%	12	9	1.6	0.3	O=C(N/C(=C/c1ccc(F)cc1)C(=O)N1CCOCC1)c1ccco1
-5%	4	8	-0.2	0.0	O=C(CCSC1=NCCCN1)c1ccc(F)cc1
-1%	11	10	-2.7	-35	Nc1nc(=S)c2[nH]c(=S)[nH]c2[nH]1
2%	-3	5	-4.2	-0.5	CCc1ccc(CNC(=O)C2CCN(S(=O)(=O)N3CCCCC3)CC2)cc1
12%	8	3	5.4	-0.4	O=C1NC(=O)C(Cc2ccccc2)(c2ccccc2)N1 (configuration not stated)

Vif A3G	Ecoli rRNA inh	Ecoli rRNA inh OD600	Ecoli rRNA inh RFP	AF4-AF9 inh	Molecule
-7%	16	18	0.8	5.3	O=C(O)c1cccc(Oc2ccc(C(=O)O)c([N+](=O)[O-])c2)c1
16%	-9	-10	-1.4	0.2	O=C1c2cc(O)c(O)cc2OC(c2ccc(O)c(O)c2)C1O (configuration not stated)
-7%	6&-2	2&-4	2.5&-0.2	-0.2&-9.0	C[C@H](CO)N1C[C@H](C)[C@@H](CN(C)Cc2ccc3c(c2)OCO3)OCc2cnnn2CCCC1=O
4%	4	14	-1.9	-3.7	COC(=O)c1cccc(NC(=O)CCN2C(=O)NC(C)(C)C2=O)c1
-8%	2	10	-1.5	1.0	O=C(CSc1nc2c(cnn2-c2ccccc2)c(=O)[nH]1)NCC1CCCO1 (configuration not stated)
-4%	15	1	-4.3	-0.5	CC(C)C(=O)Nc1cccc(COc2ccccc2CN(Cc2ccccc2)C(=O)OC(C)(C)C)c1
-1%	1	-11	3.5	3.5	O=C1c2ccccc2C(=O)N1CCCCc1cn(C[C@H]2CC[C@H](Cn3cc(CCCCN4C(=O)c5ccccc5C4=O)nn3)O2)nn1
1%	9	22	4.2	-2.2	CC[N+]1(C)CCC(O)(/C=C/c2ccccc2)C(C(=O)/C=C/c2ccccc2)C1 (configuration not stated)

Vif A3G	Ecoli rRNA inh	Ecoli rRNA inh OD600	Ecoli rRNA inh RFP	AF4-AF9 inh	Molecule
-3%	-3	-4	-1.5	8.1	CCOc1ccc(NC(=O)CN(C)C(=O)c2cc(-c3ccco3)nc3ccccc23)cc1OCC
-1%	6	8	-0.3	1.3	CCN1CCN(S(=O)(=O)c2ccc(Cl)c(C(=O)NCCOc3ccc(C)cc3)c2)CC1
-3%	10	14	-0.2	-2.8	c1ccc(C(CN2CCCCC2)Oc2ccccn2)cc1 (configuration not stated)
-5%	-1	-3	-5.9	-1.2	COc1ccc(NC(=O)CNc2ccc(OC)c(S(=O)(=O)N3CCOCC3)c2)cc1
-1%	8	6	2.2	1.1	CC1C(=O)N(Cc2cn(CCC3OCCO3)nn2)CCS(=O)(=O)N1Cc1ccc(-c2cccc(CO)c2)cc1 (configuration not stated)
-3%	-1	1	0.8	1.2	Nc1ccn([C@@H]2O[C@H](CNCc3ccc(-c4cc(C(F)(F)F)ccc4Cl)o3)[C@@H](O)[C@H]2O)c(=O)n1
-3%	25	14	1.3	1.3	O=C(NC1CC1)c1cccc(NC(=O)C2CC2)c1
-6%	3	11	4.5	0.8	Cc1ccc(C(=O)NC(Cc2cccc(F)c2)C(=O)O)cc1 (configuration not stated)

Vif A3G	Ecoli rRNA inh	Ecoli rRNA inh OD600	Ecoli rRNA inh RFP	AF4-AF9 inh	Molecule
5%	4	23	-3.2	0.8	O=C(CCC1CCN(Cc2nccs2)CC1)Nc1ccccc1
6%	-10	-8	-0.9	6.7	COc1ccc(NC(=O)C2CC(=O)N(c3ccccc3F)C2)cc1S(=O)(=O)N1CCCCC1 (configuration not stated)
11%	-5	-3	-5.8	12	Cc1cc(O)c(C(C)C)cc1NC(=O)Nc1ccc([N+](=O)[O-])cc1
5%	-8	-5	0.6	-1.2	Cc1c(C)c2cc(Cl)c(OCC(=O)NCCCN3CCCC3=O)cc2oc1=O
-2%	1	20	0.7	-1.3	O=C(NC(=S)Nc1ccc(-c2ccccc2)cc1)c1ccccc1
-7%	19	10	-0.3	-0.4	Cn1c(=O)[nH]c2c(cnn2C)c1=O
7%	0	1	2.0	5.8	Cc1noc(C)c1COc1ccccc1C(=O)N1CCN(S(=O)(=O)c2ccc(C(C)C)cc2)CC1
2%	0	8	-3.8	1.6	CN(C(=O)c1cccc(NC(=O)Cc2ccc(NC(=O)C3CCN(C(=O)C4CCC4)CC3)cc2)c1)C1CCC1

Vif A3G	Ecoli rRNA inh	Ecoli rRNA inh OD600	Ecoli rRNA inh RFP	AF4-AF9 inh	Molecule
0%	15	18	5.4	-2.7	O=[N+]([O-])c1csc2ccccc12
-3%	1	0	2.2	-0.8	CNC(=O)c1ccc(NC(=O)c2ccccc2OCc2c(C)noc2C)cc1
15%	18	0	0.5	0.1	COc1cc(OC)nc(/N=C/N(C)C)n1
-5%	-11	3	0.5	-3.3	C#CCNCCS(=O)(=O)N(Cc1ccc(Br)cc1)[C@@H](CC(C)C)C(=O)O

Screening results from PubChem BioAssay.
